Screens: PubChem BioAssay, National Center for Advancing Translational Sciences (NCATS)
miR-21 FLuc = miR-21 reporter, rising signal. HeLa miR-21 FLuc reporter, luciferase, 48 h. Potency, µM (top dose mostly 38.3 µM), for the others: top-dose reporter change, positive = more light. 340,000 tested, under 10 active. AID 2288; active = well fitted rising curve with a large enough effect; inconclusive = small, poorly fitted or top-dose-only effect; inactive = no such curve, though single readings can be large or run the other way;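 also: % of control where 0% means no effect; miR-21 action dims this reporter so a rising signal means less miR-21 action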
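Luminescence from a firefly luciferase reporter carrying a miR-21 binding site downstream, stably expressed under a CMV promoter in HeLa cells that make miR-21 endogenously, reports miRNA modulation after 48 h compound exposure up to approximately 40uM final.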
Active calls of the source: *; ? = inconclusive.

SMILES | miR-21 FLuc
O=C(COc1ccccc1F)Nc1nnc(SCc2cc(=O)c3ccccc3[nH]2)s1 | 0%
CCC(Sc1nc2ncccc2o1)C(=O)Nc1cccc(C)c1 (centres undefined) | -52%
CCOc1ccc2nc(NC(=O)CS(=O)(=O)c3ccc(Cl)cc3)sc2c1 | 26%
Cc1ccc2oc(=O)c3cc(C(=O)N4CCN(c5ccccc5F)CC4)sc3c2c1 | 1%
CCCn1c2ccccc2c2cnn(CC(=O)NCc3cc(OC)ccc3OC)c(=O)c21 | 0%
O=C(CN1C(=O)C2CCCCN2c2ccc(C(=O)N3CCCC3)cc21)NCc1ccccc1 (centres undefined) | 4%
Cc1cccc(CCNC(=O)C2CCCN(S(=O)(=O)c3ccc4c(c3)oc(=O)n4C)C2)c1 (centres undefined) | -5%
Cc1ccccc1CNC(=O)CCSCc1cnn(-c2ccccc2)c1-n1cccc1 | 12%
COc1ccc(CCNC(=O)CCc2c(C)nc3cc(-c4ccc(Cl)cc4)nn3c2C)c(OC)c1 | -6%
COc1ccc(NC(C)=O)cc1NC(=O)C1(c2cccs2)CCOCC1 | -19%
CCn1ccc2c(OCC(=O)Nc3ccc(OC)cc3OC)cccc2c1=O | -32%
CCCCN(CC)CCNC(=O)Cn1cnc2sc(C)c(S(=O)(=O)N3CCN(c4ccccc4OC)CC3)c2c1=O | 4%
Cc1ccn2c(Nc3ccc4c(c3)OCO4)c(-c3ccco3)nc2c1 | -45%
O=C(NCc1ccccc1)C(=O)NCC(c1cccs1)S(=O)(=O)c1ccccc1 (centres undefined) | -2%
O=C(Nc1ccc(Cl)c(-c2nc3ccccc3o2)c1)c1cccc2c(Cl)cccc12 | -2%
CCC(=O)Nc1cccc(OCc2cc(=O)n3cc(C)ccc3n2)c1 | -67%
COc1ccc(CN(Cc2ccco2)c2cnc(S(C)(=O)=O)nc2C(=O)Nc2ccc(C)c(Cl)c2)cc1 | 1%
Cc1cccc(NC(=O)Cn2c(=O)n(CC3CCC(C(=O)NCCc4ccccc4)CC3)c(=O)c3ccccc32)c1C (centres undefined) | 6%
COc1ccc(OC)c(CNC(=O)c2ccccc2NC(=O)c2nsc3ccccc23)c1 | 3%
CCCCN(CCCC)CCNC(=O)c1cn(C)c2ccc(S(=O)(=O)N3CCOCC3)cc2c1=O | 0%
O=C(c1cn(CCOc2ccc(Cl)cc2)c2ccccc12)C1CCCCC1 | -2%
Cc1cccc(OCC(=O)Nc2ccccc2C(=O)OCc2cc(=O)n3nc(C)sc3n2)c1 | -8%
COc1ccc(C2CC(=O)c3c([nH]c(C(=O)OCc4ccccc4)c3C)C2)cc1OC (centres undefined) | -1%
O=C(Nc1nc2c(F)cc(F)cc2s1)c1ccc(S(=O)(=O)N2CCc3ccccc32)cc1 | 1%
Cc1ccc2onc(CC(=O)N3CCN(c4cccc(Cl)c4)CC3)c2c1 | 2%
Cn1c(=O)c2sccc2n2c(CCC(=O)Nc3ccc(F)cc3)nnc12 | -1%
CC(C)(C)OC(=O)N1CCC(c2c(C(=O)N3CCN(C(=O)c4ccco4)CC3)cnn2-c2cccc(F)c2)CC1 | -7%
CCc1ccc(NCc2cc3cc(OC)c(OC)cc3n(CC(=O)Nc3cc(C)ccc3C)c2=O)cc1 | 4%
CCN1c2ccccc2-c2nc(SCC(=O)Nc3cc(OC)cc(OC)c3)ncc2S1(=O)=O | 4%
CC1CCN(c2cc3c(cc2F)c(=O)c(S(=O)(=O)c2cccc(Cl)c2)cn3Cc2ccccc2)CC1 | 0%
CCN(CC)C(=O)CSc1nc2c(c(=O)n(C)c(=O)n2C)n1Cc1ccccc1 | -1%
CCSc1nc2c([nH]c3ccccc32)c(=O)n1CC | 10%
O=C(Nc1ccccc1Br)c1cc(S(=O)(=O)NC2CCCCC2)ccc1F | -1%
COC(=O)c1ccccc1NC(=O)C1CCCN(c2ncnc3onc(C)c23)C1 (centres undefined) | 0%
CC(C)c1nc2ccc(C(=O)NCc3ccccc3Br)cc2o1 | -8%
CCc1ccc(NC(=O)c2sc3nc(-c4ccccc4)cn3c2C)cc1 | -5%
O=C(NCc1ccccc1)c1cc2sccc2n1Cc1ccc(Cl)cc1 | 2%
COc1ccccc1NC(=O)CSc1nc2ccccc2c(=O)n1CCC(=O)NC1CCCCC1 | 4%
CC(C)c1ccc(NC(=O)CSC2=Nc3ccccc3C3=NC(CCC(=O)NCc4cccs4)C(=O)N23)cc1 (centres undefined) | 21%
CS(=O)(=O)n1nc(-c2ccco2)nc1NCc1ccccc1Cl | -43%
Cc1ccc(C)c(S(=O)(=O)c2cn(C)c3cc(F)c(F)cc3c2=O)c1 | 5%
CCC(C)S(=O)(=O)c1oc(-c2ccc(F)cc2)nc1S(=O)(=O)c1ccc(F)cc1 (centres undefined) | ?
Cc1ccc(C(=O)Nc2ccc(-c3nc4ccccc4o3)cc2)cc1Cl | -6%
CCC1CN(C(=O)N2CCC(C(=O)N3CCN(c4ccccc4F)CC3)CC2)c2ccccc2O1 (centres undefined) | -5%
COc1ccc(NC(=O)C(Cc2ccccc2)NS(=O)(=O)c2ccc3c(c2)CCN3C(C)=O)cc1 (centres undefined) | -9%
CCN1C(=S)N[C@@H](c2cccc(C(F)(F)F)c2)C(C(=O)OC)=C1C | ?
COc1cc(NC(=O)C2=C(C)Nc3nnnn3C2c2ccc(SC)cc2)c(OC)cc1Cl (centres undefined) | 8%
COc1cccc(N2CCN(C(=O)c3nn(C)c4c3CSc3ccc(C)cc3-4)CC2)c1 | -9%
CCOC(=O)c1cc(S(=O)(=O)NCc2ccccc2)[nH]n1 | -1%
Cc1cc(C)c2oc(-c3ccc(C)c(NC(=O)/C=C/c4ccco4)c3)nc2c1 | -21%
COc1ccc(C2c3c(n(C)c4ccccc34)C(=O)N2CC(=O)Nc2ccc(C)c(Cl)c2)cc1 (centres undefined) | -2%
Cc1ccc(/C=C/c2onc(C)c2S(=O)(=O)N2CCC(C(=O)Nc3cc(F)ccc3F)CC2)cc1 | -2%
Cc1ccc(Nc2cc(C)nc3nncn23)c(C)c1 | 0%
Cc1ccc(CN(Cc2ccco2)C(=O)COc2ccccc2C)cc1 | -1%
CCN1CCN(C(c2ccc(Cl)cc2)c2c(O)cc(C)n(CCOC)c2=O)CC1 (centres undefined) | -1%
CC1CCN(C(=O)c2cccc(NC(=O)c3nsc4ccccc34)c2)CC1 | -73%
O=C(Cc1ccccc1)Nc1sc2c(c1C(=O)Nc1ccccc1Cl)CCCCC2 | 1%
COc1cccc(N2CCN(C(=O)c3cccn3-c3nnc(N4CCCCC4)s3)CC2)c1 | -4%
O=C(c1noc2c1CCCCC2)N1CCN(c2ccc(Cl)cc2)CC1 | 3%
CC(=O)c1cccc(NC(=O)Nc2sc3nc4n(c(=O)c3c2C)CCC(C)CC4)c1 (centres undefined) | 3%
(list continues)
SMILES | miR-21 FLuc
COc1cc(OC)c(N(C)C(=O)c2nn(C)c3c2CSc2ccccc2-3)cc1Cl | -1%
COc1cccc(NC(=O)CN(Cc2ccccc2)S(=O)(=O)c2ccc3nc(C)sc3c2)c1 | -4%
COc1ccc(-c2oc3ncn4nc(COc5c(C)cccc5C)nc4c3c2-c2ccc(OC)cc2)cc1 | -4%
CCOC(=O)c1cc2c(=O)n3ccccc3nc2n(CC2CCCO2)c1=NC(=O)c1ccccc1Br (centres undefined) | 4%
CCOC(=O)CSc1nc2sc3c(c2c(=O)n1-c1ccccc1)CCC(C(C)(C)C)C3 (centres undefined) | -3%
Cc1ccc(-n2ncc(C(=O)N3CCN(c4cccc(C)c4C)CC3)c2C2CCNCC2)c(C)c1 | 2%
O=C(NCC(c1ccc(Cl)cc1)N1CCCCC1)c1ccccc1 (centres undefined) | 0%
O=C(c1ccc2c(c1)N(Cc1ccccc1)C(=O)c1ccccc1S2(=O)=O)N1CCN(c2ccccc2)CC1 | 9%
O=C(NCc1ccccc1F)c1cc2ccccn2n1 | -52%
COc1ccc(Cn2cc(C(=O)c3ccc(Cl)cc3)c(=O)c3cc4c(cc32)OCO4)cc1 | -1%
COc1ccc(C(CC(=O)NCc2ccccc2Cl)N2Cc3ccccc3C2=O)cc1OC (centres undefined) | -2%
COc1ccccc1CNC(=O)Cc1c(C)c2cc3c(C)coc3c(C)c2oc1=O | 5%
COc1cccc(CNCCSc2nnnn2C)c1OCc1ccccc1 | 8%
Cc1cccc(OCC(=O)N(Cc2sccc2C)C2CCS(=O)(=O)C2)c1 (centres undefined) | -4%
CCc1ccc(CSc2nc(-c3ccccc3F)nc3c2Cc2c(CO)cnc(C)c2O3)cc1 | -3%
COc1cccc(C(=O)N2CCC(c3nc4ccccc4s3)CC2)c1 | 3%
CCSc1ncc(Cl)c(C(=O)N(Cc2ccc(C(C)(C)C)cc2)C2CCS(=O)(=O)C2)n1 (centres undefined) | 4%
CCCCN(CC)CCNC(=O)CN1C(=O)COc2ccc(S(=O)(=O)N3CCOCC3)cc21 | 0%
COc1cccc(NC(=O)CN2CCCN(S(=O)(=O)c3ccc(Br)cc3)CC2)c1 | 15%
N#Cc1c(C(F)(F)F)cc(-c2cccs2)nc1SCC(=O)Nc1ccc(F)cc1 | -22%
COc1ccc(OC)c(CNC(=O)CN2CC(C)Sc3ccccc32)c1 (centres undefined) | -11%
COCCCNC(=O)c1cnn(-c2ccc(F)cc2F)c1C1CCNCC1 | -5%
CC(=O)c1ccc(NC(=O)Nc2sc3nc4n(c(=O)c3c2C)CCC(C)CC4)cc1 (centres undefined) | -31%
COc1ccc(F)cc1S(=O)(=O)NCC(c1ccco1)S(=O)(=O)c1ccc(F)cc1 (centres undefined) | 14%
CCOC(=O)c1c(C)oc2nc(C)nc(NC(C)c3ccccc3)c12 (centres undefined) | -2%
CCOc1ccc(C(=O)Nc2cccc(NC(=O)c3ccc(Cl)cc3Cl)c2)cc1 | -1%
Cc1ccc(CCNS(=O)(=O)c2ccc3c(c2)C(C(C)C)C(=O)N3)cc1 (centres undefined) | -7%
Cc1cccc(N2C(=O)CCSC23C(=O)N(Cc2ccc(F)cc2)c2ccccc23)c1 (centres undefined) | ?
Cc1ccccc1CN1C(=O)c2ccccc2S(=O)(=O)c2ccc(C(=O)OCC3CCCO3)cc21 (centres undefined) | 2%
CC(=O)c1cccc(NC(=O)c2oc3c(c2C)-c2nn(Cc4ccc(Cl)cc4)cc2CC3)c1 | 2%
Cc1ccccc1CNC(=O)c1ccc2nc(SCc3ccc(F)cc3)n(C)c2c1 | -8%
CSc1ccc(CNC(=O)Cn2c(-c3cccs3)cc3cc(F)ccc32)cc1 | 4%
CCOC(=O)c1c(C)oc2nc(C)nc(NCCCN3CCN(c4cc(Cl)ccc4C)CC3)c12 | 1%
COc1cc(OC)cc(-c2cc3nc(C)c(CCC(=O)NCCc4cccc(C)c4)c(C)n3n2)c1 | 9%
Cc1oc(-c2ccccc2F)nc1CN1CCC(C(=O)NCCc2ccc(Cl)cc2)CC1 | 1%
Cc1cccc(NC(=O)C2CCN(c3cnccn3)CC2)c1 | 0%
Cc1nn(-c2ccccc2)c2c1N(CC(=O)N1CCN(c3cccc(Cl)c3)CC1)C(=O)CS2 | -5%
Cc1onc(-c2ccccc2Cl)c1C(=O)Oc1ccc(Cl)cc1Cl | -1%
Cc1ccccc1C(=O)Nc1sc2c(c1C(=O)O)CCC(C(C)(C)C)C2 (centres undefined) | 22%
COc1cccc(-n2c(-c3cccc(F)c3)nc3c(cnn3-c3ccc(C)cc3)c2=O)c1 | 12%
COc1cccc(Cn2c(CNC(=O)CCc3ccccc3)nc3cccnc32)c1 | 0%
CCC(CC)C(=O)Nc1ccc(OCc2cc(=O)n3ccc(C)cc3n2)cc1 | 0%
CCCCc1nn2c(=O)cc(COC(=O)c3cccc(NC(=O)c4cccs4)c3)nc2s1 | -8%
Cc1ccc(C)c(CN2C(=O)c3ccccc3S(=O)(=O)c3ccc(C(=O)NCCc4ccc(Cl)cc4)cc32)c1 | 1%
O=C(Nc1ccc(OC(F)(F)F)cc1)c1cc2ccccn2n1 | -5%
O=C(c1cc(-c2cccc(Cl)c2)on1)N1CCCCC1 | -2%

In the list so far, 16 contain two or more sulfur atoms:
SMILES | miR-21 FLuc
O=C(COc1ccccc1F)Nc1nnc(SCc2cc(=O)c3ccccc3[nH]2)s1 | 0%
CCOc1ccc2nc(NC(=O)CS(=O)(=O)c3ccc(Cl)cc3)sc2c1 | 26%
CCCCN(CC)CCNC(=O)Cn1cnc2sc(C)c(S(=O)(=O)N3CCN(c4ccccc4OC)CC3)c2c1=O | 4%
O=C(NCc1ccccc1)C(=O)NCC(c1cccs1)S(=O)(=O)c1ccccc1 (centres undefined) | -2%
O=C(Nc1nc2c(F)cc(F)cc2s1)c1ccc(S(=O)(=O)N2CCc3ccccc32)cc1 | 1%
CCN1c2ccccc2-c2nc(SCC(=O)Nc3cc(OC)cc(OC)c3)ncc2S1(=O)=O | 4%
CC(C)c1ccc(NC(=O)CSC2=Nc3ccccc3C3=NC(CCC(=O)NCc4cccs4)C(=O)N23)cc1 (centres undefined) | 21%
CCC(C)S(=O)(=O)c1oc(-c2ccc(F)cc2)nc1S(=O)(=O)c1ccc(F)cc1 (centres undefined) | ?
COc1cccc(NC(=O)CN(Cc2ccccc2)S(=O)(=O)c2ccc3nc(C)sc3c2)c1 | -4%
CCOC(=O)CSc1nc2sc3c(c2c(=O)n1-c1ccccc1)CCC(C(C)(C)C)C3 (centres undefined) | -3%
Cc1cccc(OCC(=O)N(Cc2sccc2C)C2CCS(=O)(=O)C2)c1 (centres undefined) | -4%
CCSc1ncc(Cl)c(C(=O)N(Cc2ccc(C(C)(C)C)cc2)C2CCS(=O)(=O)C2)n1 (centres undefined) | 4%
N#Cc1c(C(F)(F)F)cc(-c2cccs2)nc1SCC(=O)Nc1ccc(F)cc1 | -22%
COc1ccc(F)cc1S(=O)(=O)NCC(c1ccco1)S(=O)(=O)c1ccc(F)cc1 (centres undefined) | 14%
CSc1ccc(CNC(=O)Cn2c(-c3cccs3)cc3cc(F)ccc32)cc1 | 4%
CCCCc1nn2c(=O)cc(COC(=O)c3cccc(NC(=O)c4cccs4)c3)nc2s1 | -8%

The list is partial. The share of hits here may be higher or lower than overall.
